Bioassay records (PubChem BioAssay)
GALR2 ag – activates the human galanin receptor 2; O43603; GALR2-expressing cells, agonist activation read-out; activation, %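 (tested at 5 µM)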; 140,000 tested, 0.48% active;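 active = above mean plus 3 SD of all compounds, about 5% in these data, not always enough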;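 also: 0% = vehicle buffer wells and 100% = reference agonist at full effect; tested in CHO reporter cells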
Target sequence (O43603 whole entry, looked up): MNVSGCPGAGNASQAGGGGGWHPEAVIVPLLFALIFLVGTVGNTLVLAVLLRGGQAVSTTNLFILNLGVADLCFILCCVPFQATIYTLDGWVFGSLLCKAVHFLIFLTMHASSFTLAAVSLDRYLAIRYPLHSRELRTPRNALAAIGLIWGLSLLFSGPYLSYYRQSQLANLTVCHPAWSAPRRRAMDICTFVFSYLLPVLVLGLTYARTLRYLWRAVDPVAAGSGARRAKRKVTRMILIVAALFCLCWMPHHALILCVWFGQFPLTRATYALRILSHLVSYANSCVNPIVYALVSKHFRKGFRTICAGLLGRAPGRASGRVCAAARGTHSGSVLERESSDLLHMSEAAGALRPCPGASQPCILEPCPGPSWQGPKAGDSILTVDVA
PKD1 inh – blocks activity of human protein kinase D1. Q15139. PKD1 kinase fluorescence polarization assay. inhibition, %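 (about 10 µM by stock and volumes)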. 200,000 tested, 0.056% active;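 active = inhibition of 50% or more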;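 also: controls were vehicle for no effect and a reference inhibitor for full effect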
Insulin prom inh – TRM-6 insulin promoter activity inhibition; TRM-6 cells (human fetal islet line), insulin promoter-eGFP reporter, imaging; reporter expression induced with tamoxifen; inhibition, % at 2 µM; 130,000 tested, 0.9% active; AID 1273;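 active = inhibition above the mean plus 3 SD, with well images judged a real hit on visual review, cut at about 60% in these data, passing the limit was not always enough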
HSV augment – increases HSV replication in cells; 220,000 tested, 0.005% active; AID 1956; maximum fold increase; HSV replication augmentation in cells, fold increase;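 active = peak rise of 1.5-fold or more in the series; tested in PC3 cells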;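 also: first round at 10 µM; read as green reporter fluorescence; hits show the peak of a series up to 25 µM; 1 = signal of infected wells without compound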
RGS16-Gao HTS – modulates binding between human RGS16 and Galphao; O15492+P09471; bead-based flow cytometry RGS16-Galphao binding, fluorescence; actives lie on both sides; binding response (% of control), % at 10 µM; 220,000 tested, 0.38% active; AID 1441;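 active = below 25% or above 175%, edge rows of some plates excepted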;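 also: Galphao activated by GDP with aluminum fluoride before binding; 100% = wells without compound and 0% = beads without RGS; some results beyond the cut were filed as inactive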
Target sequence (O15492 whole entry, looked up): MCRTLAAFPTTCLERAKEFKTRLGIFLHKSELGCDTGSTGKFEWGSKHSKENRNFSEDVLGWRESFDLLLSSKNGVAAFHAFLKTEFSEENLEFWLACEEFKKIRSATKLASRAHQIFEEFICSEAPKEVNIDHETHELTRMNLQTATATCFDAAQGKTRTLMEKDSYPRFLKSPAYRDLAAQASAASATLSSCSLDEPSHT
Target sequence (P09471 whole entry, looked up): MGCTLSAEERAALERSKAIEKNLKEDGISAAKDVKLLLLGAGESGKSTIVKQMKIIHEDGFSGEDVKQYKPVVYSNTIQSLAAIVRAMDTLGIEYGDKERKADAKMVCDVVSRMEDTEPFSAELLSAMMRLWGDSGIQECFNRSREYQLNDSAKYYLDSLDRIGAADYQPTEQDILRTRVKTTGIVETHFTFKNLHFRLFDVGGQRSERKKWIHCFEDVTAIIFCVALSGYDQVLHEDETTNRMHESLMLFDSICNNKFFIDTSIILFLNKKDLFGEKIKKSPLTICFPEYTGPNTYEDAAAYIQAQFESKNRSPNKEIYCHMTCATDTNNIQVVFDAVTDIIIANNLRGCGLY
Insulin prom inh cell count – also measured in Insulin prom inh; calls as there; normalized cell count, %; measured here: cell count, toxicity; reference of the scale not given here;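 cells exposed to compound for 48 h; stained nuclei by imaging scaled within each plate; lower means fewer cells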
HSV augment primary fold – further read-out of HSV augment, marked with its call; fold increase; compound at 10 µM; measured here: primary screen fold increase 10 uM; tested in PC3 cells;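 GFP signal in the first replicate; 1 = infected wells without compound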
An asterisk follows results filed as active; i = inactive; . = not tested or not shown.

smiles | RGS16-Gao HTS | HSV augment | GALR2 ag | Insulin prom inh | PKD1 inh | HSV augment primary fold | Insulin prom inh cell count
CCOC(=O)c1c(C)[nH]c(C(=O)COC(=O)CNC(=O)c2ccc(Cl)cc2Cl)c1C | 108 | i | 0.3 | -46 | -11 | 0.93 | 122
COc1cc2c(cc1O)[C@@H]1Cc3cc(O)c(OC)cc3[C@H](C2)N1C | 104 | i | . | . | . | 1.1 | .
CCOc1ccc(-n2nc(C(=O)N3CCN(CC)CC3)c3ccccc3c2=O)cc1 | 92 | i | -1.8 | -2 | 11 | 0.94 | 28
CCc1ccccc1NC(=O)/C(C#N)=C/c1ccc(Sc2ccccc2)o1 | 83 | i | 0.1 | -15 | 19 | 1.1 | 53
CC1(C)CC(=O)c2sc(NS(=O)(=O)c3ccccc3)nc2C1 | 99 | i | . | . | -2 | 1 | .
Clc1ccc(SCc2cc(N3CCOCC3)nc(-c3ccccn3)n2)cc1 | 102 | i | . | . | 2 | 0.69 | .
CCC(=O)N1CCC2(CC1)Oc1ccc(F)cc1C(=O)C21CC(c2cccnc2)=NO1 (configuration not stated) | 99 | i | . | . | . | 0.83 | .
Cc1nc2c(-c3ccccc3)c[nH]n2c(=O)c1Cc1ccccc1 | 100 | i | . | 24 | 3 | 0.74 | 113
Cc1ccc(-c2csc(/C(C#N)=C(\O)CCl)n2)cc1 | 110 | i | . | -7 | -3 | 0.85 | 166
Cc1cccc(C)c1NC(=O)CC1SC2=NCCN2C1=O (configuration not stated) | 97 | i | -3.7 | -5 | -3 | 1 | 84
COc1cccc(NC(=O)C23CCC(C)(C(=O)O2)C3(C)C)c1 (configuration not stated) | 62 | i | -3.2 | 23 | -1 | 1 | 39
O=[N+]([O-])c1ccc(N2CCOCC2)cc1N1CCCCC1 | 103 | i | . | . | 12 | 1 | .
O=C(CSc1ccc2nnc(-c3cccnc3)n2n1)N1CCOCC1 | 122 | i | -5.0 | . | -4 | 0.91 | .
CC1(C(=O)NCCN2CCOCC2)C=CC2(CCCCC2)N1C(=O)c1ccccc1 (configuration not stated) | 100 | i | -1.8 | -10 | -4 | 0.91 | 118
COc1ccc(C2/C(=C(/O)c3ccc(C)cc3)C(=O)C(=O)N2C)cc1 (configuration not stated) | 99 | i | -4.9 | -33 | -9 | 0.97 | 103
CCOC(=O)C1=NN(c2ccc(OC)cc2)C2C(=O)N(c3ccccc3OC)C(=O)C12 (configuration not stated) | 101 | i | . | . | . | 0.94 | .
C=CCc1ccc(OCCCCNC(C)CC)c(OC)c1 (configuration not stated) | 103 | i | -0.2 | -86 | -8 | 0.81 | 155
COc1cccc(NC(=O)C(c2ccccc2)N2CCNC(=O)C2)c1 (configuration not stated) | 103 | i | . | . | -3 | 1.1 | .
COC(=O)c1cccc(NC(=O)C2COc3ccccc3O2)c1C (configuration not stated) | 105 | i | . | . | . | 0.92 | .
O=c1cccccc1NN=C1CCCCC1 | 101 | i | . | . | . | 1.3 | .
CN(C(=O)c1cccs1)c1ccccc1C(=O)O | 98 | i | -0.1 | . | -6 | 0.87 | .
O=C(Nc1ccc(-c2nc3ccccc3o2)cc1)c1cc(-n2cnnc2)ccc1Cl | . | i | -0.7 | 16 | -7 | 0.79 | 203
Cc1cccc(C2N=C(N)Nc3nc4ccccc4n32)c1 (configuration not stated) | 103 | i | . | . | . | 1.2 | .
O=C(CSc1nnc(NC(=O)Cc2ccccc2)s1)NCC1CCCO1 (configuration not stated) | 100 | i | . | 23 | 5 | 0.9 | 91
Cc1cc(NC(=O)c2cc(C3CC3)on2)n(-c2ccccc2)n1 | 99 | i | -2.0 | . | 11 | 1 | .
CCCCNC(=O)CN(C1CCCCC1)S(C)(=O)=O | 103 | i | -2.2 | -151 | -1 | 0.81 | 101
O=C(COc1ccccc1Cl)Nn1cnnc1 | 90 | i | -1.4 | . | 1 | 0.94 | .
Cc1c(C2Nc3ccccc3C(=O)N2O)cnn1C (configuration not stated) | 110 | i | -2.1 | i | -4 | 0.72 | 30
N/C(=N\O)C1COc2ccccc2O1 (configuration not stated) | 103 | i | -1.6 | . | -2 | 1 | .
CCCCC(=O)NC(c1ccco1)c1cc(Cl)c2cccnc2c1O (configuration not stated) | 91 | i | . | -93 | -4 | 0.77 | 99
Nc1ncnc2nc(SCCC(=O)O)[nH]c12 | 101 | i | . | . | . | 0.95 | .
O=c1[nH]c(CSc2nnc(-c3ccccc3)n2-c2ccccc2)nc2ccccc12 | 103 | i | -0.4 | -29 | -11 | 0.98 | 85
COc1ccc(Cc2n[nH]c(=S)o2)cc1 | 102 | i | . | -479 | -5 | 1 | 56
Cc1nc2sc(C(c3cccs3)N3CCN(Cc4ccccc4)CC3)c(O)n2n1 (configuration not stated) | 103 | i | . | . | -5 | 0.83 | .
Cc1ccc2cc(CN(c3ccccc3)S(=O)(=O)c3ccccc3)c(=O)[nH]c2c1 | 116 | i | . | . | . | 0.95 | .
Cc1ccc(C)c(NC(=O)C(Sc2nnc(-c3cccs3)o2)c2ccccc2)c1 (configuration not stated) | 45 | i | -1.9 | . | 1 | 1.1 | .
Fc1cccc(Cl)c1/C=N/Nc1ccccn1 | 101 | i | . | . | 0 | 1 | .
O=C(NC1=NCCS1)c1csc2ccccc12 | 99 | i | -0.9 | 6 | -1 | 0.91 | 118
Cc1ccc(C)c(Nc2c(F)c(F)c(F)c(F)c2C(=O)O)c1 | 104 | i | . | 17 | -7 | 0.91 | 128
COCc1[nH][nH]c(=O)c1C=Nc1ccccc1 | 101 | . | -0.1 | 25 | -5 | . | 90
CC(=O)Oc1oc(-c2ccccc2)nc1/C=N/c1ccccn1 | 98 | i | -0.3 | 27 | 0 | 1.1 | 106
FC(F)(F)c1ccccc1NC(=S)Nc1cccc(Cl)c1 | 100 | i | . | -30 | 6 | 1.1 | 99
CC(=O)N[C@@H](C)C(=O)OC(C)C(=O)Nc1cccc([N+](=O)[O-])c1 (some centres not stated) | 104 | i | . | -392 | 7 | 1 | 69
Clc1ccc(OCCCn2ccnc2)c(Br)c1 | 103 | . | -0.2 | 31 | 8 | . | 96
CCN(CC)S(=O)(=O)c1ccc(NC(=O)c2nc3nc(C)cc(C)n3n2)cc1 | 95 | i | . | . | . | 0.87 | .
CCOC(=O)C1CCN(c2c(Nc3cc(C)cc(C)c3)c(=O)c2=O)CC1 | 101 | i | . | . | . | 0.95 | .
CCOC(=O)c1c(-c2ccccc2)nnn1-c1nc(OC)nc(N2CCOCC2)n1 | 74 | i | 0.1 | -30 | -4 | 1 | 143
O=[N+]([O-])c1ccc(CNC2CCCc3ccccc32)cc1 (configuration not stated) | 127 | i | . | 45 | -7 | 0.96 | 102
S=C1NCCOCCNC(=S)NCCOCCOCCN1 | 99 | i | . | . | 2 | 0.92 | .
COc1cc2c(cc1OC)CN(C(=O)COc1ccc(C)c(C)c1)CC2 | 97 | i | -2.3 | 18 | -11 | 1 | 55
CCN(CC)/C(Sc1ccccc1)=C(/C(Cl)=C(Cl)Cl)[N+](=O)[O-] | 95 | i | . | -64 | -2 | 0.97 | 83
CCCCCn1c(CNC(=O)CC)nc2ccccc21 | 104 | i | -1.4 | . | 13 | 0.97 | .
CCCCOC(=O)c1ccc(OC(=O)c2cccnc2)cc1 | 98 | i | 0.5 | . | -8 | 0.83 | .
Clc1cccc(NCc2nnc(SCc3ccccc3)o2)c1 | 92 | i | -2.6 | 9 | 2 | 0.78 | 158
O=C(NCC(c1cccs1)N1CCOCC1)c1ccc(Br)o1 (configuration not stated) | 105 | i | -1.0 | 0 | 4 | 0.64 | 145
COc1ccc(/C=C/C(=O)O)cc1S(=O)(=O)NC1CCS(=O)(=O)C1 (configuration not stated) | 103 | i | . | -50 | -5 | 1 | 145
CC(C)NC(=O)c1ccccc1NC(=O)CS(=O)(=O)Cc1ccccc1 | 103 | i | 0.3 | -10 | 2 | 0.94 | 105
COc1cccc(C(=O)NCC(=O)NNc2ncnc(N)c2[N+](=O)[O-])c1 | 91 | i | . | . | 2 | 1.1 | .
CCOC(=O)c1cnc(SC)nc1Sc1ccccc1Cl | 105 | i | 0.1 | 29 | 0 | 1.2 | 71
Cc1cc(SCC(=O)OC/C(O)=C(\C#N)c2nc3ccccc3[nH]2)c(C)cc1Br | 101 | i | . | . | -1 | 0.93 | .

Later entries.
smiles | RGS16-Gao HTS | HSV augment | GALR2 ag | Insulin prom inh | PKD1 inh | HSV augment primary fold | Insulin prom inh cell count
COc1ccc(C(=O)OCc2cc3cccc(C)c3[nH]c2=O)cc1 | 99 | i | -0.7 | 29 | -9 | 0.9 | 86
Cc1nc2sc(C(c3ccc(F)cc3)N3CCOCC3)c(O)n2n1 (configuration not stated) | 94 | i | 0.0 | . | 18 | 0.99 | .
COc1ccccc1-c1ccc(/C=N/O)o1 | 100 | i | . | . | . | 0.91 | .
CC(C(=O)Nc1ccccc1-c1ccccc1)N1CCN(C(=O)c2ccccc2)CC1 (configuration not stated) | 105 | i | . | . | . | 1.2 | .
COc1cc(S(=O)(=O)N2CCOCC2)ccc1NC(=O)COC(=O)C12CC3CC(CC(C3)C1)C2 | 101 | i | -2.1 | 58 | -3 | 1.1 | 72
O=C(O)c1ccccc1NS(=O)(=O)c1ccc2c(c1)OCCO2 | 108 | i | . | . | 1 | 1 | .
Cc1ccc2c(Cl)c(C(=O)Nc3ccc4c(c3)OCO4)sc2c1 | 97 | i | 1.9 | -6 | 0 | 1.1 | 103
O=C(NC1CCCCC1)C(c1ccco1)N(Cc1ccco1)C(=O)c1ccco1 (configuration not stated) | 96 | i | -0.9 | -86 | 12 | 0.85 | 59
COc1ccc(-n2nnnc2SCC(=O)N2C(C)CCCC2C)c(OC)c1 (configuration not stated) | 103 | i | -0.8 | 20 | -11 | 0.95 | 116
COc1ccc(N2C(=O)CC(Sc3n[nH]c(-c4cccc(C)c4)n3)C2=O)cc1 (configuration not stated) | 97 | i | . | . | . | 0.94 | .
COc1ccc(-c2nc(N)sc2C2(O)C(=O)Nc3c(Br)cc(F)cc32)cc1OC (configuration not stated) | 99 | i | . | . | -3 | 1.1 | .
O=C(NCc1ccncc1)Nc1ccc(Cl)cc1Cl | 97 | i | 0.1 | 3 | -8 | 1 | 123
Cc1cc(N/N=C\c2ccccc2)nc(-c2ccccc2O)n1 | 41 | i | -0.3 | 27 | -7 | 0.87 | 98
CC1(C)Cc2nc(-c3ccccc3)nc(NNC(=O)c3ccco3)c2CO1 | 94 | i | . | . | . | 1 | .
COc1cc(O)oc1C=Nc1ccc(Cl)cc1Cl | 108 | i | -1.3 | -96 | -2 | 0.96 | 59
CC(=O)Nc1sc(/C(C#N)=C\c2cccc(Cl)c2)nc1-c1ccc(C)cc1 | 102 | . | -2.9 | . | -2 | . | .
N#CCCNCC1(c2ccccc2)CCCC1 | 115 | i | -2.8 | -21 | -9 | 1 | 106
COc1ccc(C(CNc2ccc(S(=O)(=O)N3CCCC3)cc2[N+](=O)[O-])N2CCCC2)cc1 (configuration not stated) | 101 | i | -2.4 | -15 | -1 | 0.9 | 75

Gathered by group: those above with two or more sulfur atoms.
smiles | RGS16-Gao HTS | HSV augment | GALR2 ag | Insulin prom inh | PKD1 inh | HSV augment primary fold | Insulin prom inh cell count
CC1(C)CC(=O)c2sc(NS(=O)(=O)c3ccccc3)nc2C1 | 99 | i | . | . | -2 | 1 | .
O=C(CSc1nnc(NC(=O)Cc2ccccc2)s1)NCC1CCCO1 (configuration not stated) | 100 | i | . | 23 | 5 | 0.9 | 91
Cc1nc2sc(C(c3cccs3)N3CCN(Cc4ccccc4)CC3)c(O)n2n1 (configuration not stated) | 103 | i | . | . | -5 | 0.83 | .
Cc1ccc(C)c(NC(=O)C(Sc2nnc(-c3cccs3)o2)c2ccccc2)c1 (configuration not stated) | 45 | i | -1.9 | . | 1 | 1.1 | .
O=C(NC1=NCCS1)c1csc2ccccc12 | 99 | i | -0.9 | 6 | -1 | 0.91 | 118
S=C1NCCOCCNC(=S)NCCOCCOCCN1 | 99 | i | . | . | 2 | 0.92 | .
COc1ccc(/C=C/C(=O)O)cc1S(=O)(=O)NC1CCS(=O)(=O)C1 (configuration not stated) | 103 | i | . | -50 | -5 | 1 | 145
CCOC(=O)c1cnc(SC)nc1Sc1ccccc1Cl | 105 | i | 0.1 | 29 | 0 | 1.2 | 71

The order is random. Share with any hit: about 1.3%.
